Source: PubChem BioAssay (National Center for Advancing Translational Sciences (NCATS))
CtBP-E1A blk – CtBP/E1A binding inhibition. AlphaScreen GST-E1A/His-CtBP binding, 1536-well; hits give low values; control for the full effect not named in the record. activity change, % (no concentration beside the values). 340,000 tested, 0.49% active. AID 651724; in the data active means activity change below about -65%; inconclusive means about -30% to -65%; inactive means above about -30%; note: % is set by controls: 0 for no effect and ±100 for the full control effect; compound concentration not given in the record
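AlphaScreen with 125 nM GST-E1A and 125 nM His-CtBP (5X stocks) in Tris pH 8.0, 300 mM NaCl, BSA, Tween 20, TCEP. Compounds preincubated 2 h at 37 deg C, then glutathione donor/nickel acceptor beads added for 1 h at 37 deg C in dark.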
D2 potentiator – human D2 receptor positive allosteric modulation. P14416. DiscoveRx D2 beta-arrestin cells, luminescence, 90 min; 100% = 57 uM dopamine signal. potentiation, % (test concentration not listed). 360,000 tested, 0.23% active. AID 624464; active = potentiation of 50% or more; inconclusive = 30% to 50%; inactive = 30% or less;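 note: compound concentration not given in the record; tested on top of an EC20 dose of dopamine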
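PathHunter beta-arrestin assay in DiscoveRx D2 cells. Compounds were added with an EC20 of dopamine (50 nM final) for 90 min at 37 deg C. Luminescence was read 1 h after detection reagent, with 57 uM dopamine as the EC100 control.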
TRPML1 ag – agonists of human TRPML1 channel; activation, % (concentration not given with the values); TRPML1-expressing cells, Ca2+ dye fluorescence, FDSS; host cell line not named in the record; reference of the full effect not given here; Q9GZU1; AID 624414; 410,000 tested, 0.12% active; in the data active = activation above about 50%; inconclusive = about 30% to 50%; inactive = below about 30%; note: 0% is about no effect; the text of the record puts the active cut at 80%
Target sequence (Q9GZU1 whole entry, looked up): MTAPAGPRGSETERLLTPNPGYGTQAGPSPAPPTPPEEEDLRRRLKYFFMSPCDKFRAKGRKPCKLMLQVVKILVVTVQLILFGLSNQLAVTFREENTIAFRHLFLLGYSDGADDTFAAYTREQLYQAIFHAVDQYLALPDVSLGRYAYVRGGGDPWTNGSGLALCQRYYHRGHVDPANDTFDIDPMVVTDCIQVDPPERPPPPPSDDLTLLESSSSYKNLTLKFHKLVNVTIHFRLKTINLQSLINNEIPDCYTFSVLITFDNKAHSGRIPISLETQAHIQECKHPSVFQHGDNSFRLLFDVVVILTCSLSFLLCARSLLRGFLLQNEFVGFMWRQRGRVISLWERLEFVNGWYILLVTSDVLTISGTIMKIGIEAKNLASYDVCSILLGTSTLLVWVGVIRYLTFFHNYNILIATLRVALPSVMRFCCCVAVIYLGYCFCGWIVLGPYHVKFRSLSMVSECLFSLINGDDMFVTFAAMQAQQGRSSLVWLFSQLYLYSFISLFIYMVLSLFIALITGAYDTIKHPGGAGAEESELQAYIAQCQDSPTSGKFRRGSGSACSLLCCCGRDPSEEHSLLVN
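In this qHTS format, compounds were pin-transferred onto Ca8-dye-loaded TRPML1-DL cells induced with Tet overnight, and intracellular Ca2+ fluorescence was recorded kinetically for 110 s after a 10 s baseline. A subsequent 4uM final 54-4 (EC80) addition followed by a second 110 s read served as the antagonist phase.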
Six1-Eya2 blk – Six1/Eya2 interaction inhibition; AlphaScreen GST-Six1/His-Eya2 binding, biochemical; hits give low values; control for the full effect not named in the record; activity change, % (test concentration not listed); 360,000 tested, 0.56% active; AID 651725; in the data active = activity change below about -65%; inconclusive = about -30% to -65%; inactive = above about -30%; note: % is set by controls: 0 for no effect and ±100 for the full control effect; compound concentration not given in the record
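AlphaScreen luminescence read after one hour at 37 °C in darkness. Pin-transferred compounds met GST-Six1 and His-Eya2 protein (5X stock 250 nM/500 nM) plus glutathione donor and Ni-chelate acceptor beads (5X, 50 ug/mL).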
TRPML1 inh – blocks the human TRPML1 channel. TRPML1-inducible cells, Ca2+ dye fluorescence, FDSS; hits give low values; inhibition of EC80 agonist-evoked calcium signal. AID 624415. Q9GZU1. 390,000 tested, 0.02% active. activity change, negative = inhibition, % (test concentration not listed); in the data active means activity change below about -50%; inconclusive means about -30% to -50%; inactive means above about -30%;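 note: stimulus is agonist 54-4 at its EC80 concentration; % is set by controls: 0 for no effect and ±100 for the full control effect; compound concentration not given in the record; the text of the record puts the active cut at -80%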
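Calcium fluorescence in TRPML1-DL cells induced overnight with Tet: a 110 s read after compound pin addition, then a 110 s antagonist read after challenge with 54-4 at 4 uM final (EC80).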
TRPV1 PAM – potentiators of human vanilloid receptor 1 (TRPV1); Q8NER1; AID 540277; 320,000 tested, 0.02% active; potentiation, % at 8.33 µM; TRPV1-expressing cells, Fluo-8 calcium influx, capsaicin EC20 potentiation; host cell line not named in the record; control for the full effect not named in the record; active means potentiation above 80%; inconclusive means 30% to 80%; inactive means below 30%; note: 0% is about no effect
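TRPV1-expressing cells were cultured overnight at 35.5C and loaded with Fluo-8 calcium dye for 40 to 90 min at room temperature. After a 10 s baseline, compound was added and calcium influx was read kinetically for 3 min (ex 480/em 520 nm).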
Numbers without * were called inactive; ? = inconclusive; / = not tested or not shown; & = joins results of further samples.

| No. | SMILES | CtBP-E1A blk | D2 potentiator | TRPML1 ag |
| --- | --- | --- | --- | --- |
| 1 | Cc1ccccc1/C=N/N1CCN(c2ccccc2)CC1 | ? | -19 | 1.1 |
| 2 | CC(=O)c1ccc(NC(=O)COC(=O)Cn2cnc3ccccc32)cc1 | 1 | 9 | 1.6 |
| 3 | CCC(C)C(CO)NCCCn1cnc(C(=O)Nc2ccc(C)c(C)c2)n1 (configuration not stated) | 0 | -1 | 0.9 |
| 4 | Brc1ccc(C2=Nc3ccccc3C(c3ccncc3)=NN2)cc1 | / | -8 | 2.5 |
| 5 | CC(=O)c1c(C)[nH]c(C(=O)CN2C(=O)NC(CCc3ccccc3)C2=O)c1C (configuration not stated) | 0 | 0 | 1.3 |
| 6 | CC1=C(C(=O)N(C(C)C)C(C)C)CC(CC(=O)NCc2ccco2)C(=O)N1Cc1ccc(C(C)(C)C)cc1 (configuration not stated) | 0 | -2 | -0.5 |
| 7 | COc1ccc(NC(=O)NNC(=O)CCC(=O)Nc2ccccc2Cl)cc1 | / | -12 | 0.3 |
| 8 | O=S(=O)(NN=C(c1ccccc1)c1ccccc1)c1ccccc1 | 2 | -10 | 1.3 |

| No. | Six1-Eya2 blk | TRPML1 inh | TRPV1 PAM |
| --- | --- | --- | --- |
| 1 | ? | ? | 5 |
| 2 | 1 | 5 | / |
| 3 | 0 | -25 | / |
| 4 | 0 | -1 | 6 |
| 5 | -1 | 15 | 13 |
| 6 | -9 | / | / |
| 7 | 10 | 1 | -8 |
| 8 | 3 | 0 | / |

Complete entries as entered above:
Record of CC1=C(C(=O)N(C(C)C)C(C)C)CC(CC(=O)NCc2ccco2)C(=O)N1Cc1ccc(C(C)(C)C)cc1 (configuration not stated) → CtBP-E1A blk = 0; D2 potentiator = -2; TRPML1 ag = -0.5; Six1-Eya2 blk = -9; TRPML1 inh = /; TRPV1 PAM = /
Record of O=S(=O)(NN=C(c1ccccc1)c1ccccc1)c1ccccc1 → CtBP-E1A blk = 2; D2 potentiator = -10; TRPML1 ag = 1.3; Six1-Eya2 blk = 3; TRPML1 inh = 0; TRPV1 PAM = /
Record of CCC(C)C(CO)NCCCn1cnc(C(=O)Nc2ccc(C)c(C)c2)n1 (configuration not stated) → CtBP-E1A blk = 0; D2 potentiator = -1; TRPML1 ag = 0.9; Six1-Eya2 blk = 0; TRPML1 inh = -25; TRPV1 PAM = /

More records:
| No. | SMILES | CtBP-E1A blk | D2 potentiator | TRPML1 ag |
| --- | --- | --- | --- | --- |
| 9 | COc1ccc(CCCC(=O)N/N=C\c2cccs2)cc1 | -2 | -11 | -0.7 |
| 10 | Nc1cccc(S(=O)(=O)Nc2ccccc2)c1 | / | -35 | 0.1 |
| 11 | CCOc1cccc2cc(-c3nnc(NCc4ccco4)s3)c(=O)oc12 | -20 | -5 | 2.2 |
| 12 | CC1(Cc2cccc(F)c2)C(=O)Nc2ccc(S(=O)(=O)NC3CCCCC3)cc21 (configuration not stated) | 2 | -12 | 0.1 |
| 13 | c1ccc(CC2CCN(c3nc4ccccc4n4nnnc34)CC2)cc1 | 10 | 13 | 0.2 |
| 14 | CCc1nc2c(s1)CCc1onc(-c3ccc(Cl)cc3)c1-2 | -12 | -6 | 2.3 |
| 15 | C=CCOc1ccc(/C(O)=C2\C(=O)C(=O)N(CCCOC)C2c2ccncc2)cc1 (configuration not stated) | 1 | 19 | 0.1 |
| 16 | COc1ccc2cc(C3NC(=O)c4ccccc4N3)c(Cl)nc2c1 (configuration not stated) | 5 | -6 | -0.4 |

| No. | Six1-Eya2 blk | TRPML1 inh | TRPV1 PAM |
| --- | --- | --- | --- |
| 9 | 0 | -2 | 2 |
| 10 | 3 | -10 | -4 |
| 11 | -9 | 32 | -5 |
| 12 | -2 | / | / |
| 13 | 39 | 42 | 6 |
| 14 | 10 | 28 | -7 |
| 15 | 7 | 2 | -1 |
| 16 | 1 | 0 | 2 |

An excerpt of these results, with bars between the fields.
no. | Structure | CtBP-E1A blk | D2 potentiator | TRPML1 ag | Six1-Eya2 blk | TRPML1 inh | TRPV1 PAM
11 | CCOc1cccc2cc(-c3nnc(NCc4ccco4)s3)c(=O)oc12 | -20 | -5 | 2.2 | -9 | 32 | -5
12 | CC1(Cc2cccc(F)c2)C(=O)Nc2ccc(S(=O)(=O)NC3CCCCC3)cc21 (configuration not stated) | 2 | -12 | 0.1 | -2 | / | /
13 | c1ccc(CC2CCN(c3nc4ccccc4n4nnnc34)CC2)cc1 | 10 | 13 | 0.2 | 39 | 42 | 6
14 | CCc1nc2c(s1)CCc1onc(-c3ccc(Cl)cc3)c1-2 | -12 | -6 | 2.3 | 10 | 28 | -7

Other entries follow:
| No. | SMILES | CtBP-E1A blk | D2 potentiator | TRPML1 ag |
| --- | --- | --- | --- | --- |
| 17 | Cc1ccc(S(=O)(=O)N(C(=O)c2ccncc2)c2ccc(OC(=O)c3ccncc3)c3ccccc23)cc1 | 5 | 24 | -0.5 |
| 18 | Nc1nc(CCl)nc(Nc2cccc3ccccc23)n1 | / | 2 | 0.8 |
| 19 | Cc1cccc(NC(=O)CNC(=O)COC(=O)C2CC2C)c1C (configuration not stated) | -6 | 4 | 2.3 |
| 20 | Cc1ccc(C)c(NC(=S)N2CCC(c3nc4ccccc4s3)CC2)c1 | -26 | -9 | 1.3 |
| 21 | COc1ccc(-c2nc(-c3ccc(Br)o3)no2)cc1 | -2 | -5 | -0.7 |
| 22 | N#Cc1c(N)nc2c(c1-c1ccc3c(c1)OCO3)CCc1ccccc1-2 | 35 | -33 | 1.5 |
| 23 | CCOc1ccccc1OCCCC(=O)N1CCN(S(=O)(=O)c2ccccc2C#N)CC1 | -1 | -20 | -0.3 |
| 24 | Cn1nc(C(=O)Nc2ccc(Cl)cc2)cc1C(=O)Nc1ccc(Cl)cc1 | / | -5 | 0.9 |

| No. | Six1-Eya2 blk | TRPML1 inh | TRPV1 PAM |
| --- | --- | --- | --- |
| 17 | -11 | 47 | -2 |
| 18 | 7 | -14 | -11 |
| 19 | 2 | 14 | / |
| 20 | -17 | 1 | -19 |
| 21 | 5 | -8 | -15 |
| 22 | 40 | -16 | -7 |
| 23 | 3 | 0 | / |
| 24 | -2 | -8 | 18 |

Carrying on:
| No. | SMILES | CtBP-E1A blk | D2 potentiator | TRPML1 ag |
| --- | --- | --- | --- | --- |
| 25 | CCCS(=O)(=O)NC(=O)C1(C)CCCN(C(=O)c2sccc2C)C1 (configuration not stated) | 4 | -12 | 0.3 |
| 26 | COC(=O)C1=C(C)N(CCCCCC(=O)O)C(=O)NC1c1ccccc1 (configuration not stated) | / | -9 | -0.2&0.7 |
| 27 | CCC1CN(C(=O)NCc2ccccc2)c2cc(Cl)ccc2O1 (configuration not stated) | 13 | 0 | 3.6&4.6 |
| 28 | O=C(Nc1ccc2ncccc2c1)Nc1ccc2ncccc2c1 | / | 6 | -0.6 |
| 29 | O=C(O)c1cc2ccccc2c2cc(Br)ccc12 | / | -7 | -0.2 |
| 30 | Cc1ccccc1NC(=O)CCCCCN1C(=O)[C@@H]2Cc3ccccc3CN2C1=O | -9 | 1 | 0.9 |
| 31 | Cc1ccnc2nc(C(=O)Nc3nc(-c4ccccn4)cs3)nn12 | -85* | 0 | 0.1 |
| 32 | COc1ccc(S(=O)(=O)Nc2c(C)n(C)n(-c3ccccc3)c2=O)cc1 | -8 | -9 | 0.1 |

| No. | Six1-Eya2 blk | TRPML1 inh | TRPV1 PAM |
| --- | --- | --- | --- |
| 25 | -7 | -11 | / |
| 26 | 11 | 7&26 | / |
| 27 | 11 | 28&16 | -5 |
| 28 | -9 | 10 | -3 |
| 29 | 1 | 10 | -5 |
| 30 | -5 | 45 | 24 |
| 31 | -92* | 3 | -14 |
| 32 | -2 | -6 | 9 |

Going on with the list:
| No. | SMILES | CtBP-E1A blk | D2 potentiator | TRPML1 ag |
| --- | --- | --- | --- | --- |
| 33 | Cc1ccc(S(=O)(=O)c2ccc(Cl)cc2)cc1S(=O)(=O)N(C)CC(=O)O | 4 | -8 | 0.2 |
| 34 | O=C(COC(=O)C1CCN(S(=O)(=O)c2ccccc2)CC1)NCCc1ccccc1 | / | 1 | -0.4 |
| 35 | O=C(Nc1nc2ccccc2s1)C1CCN(C(=O)c2ccco2)CC1 | 3 | -2 | 0.4 |
| 36 | O=C(Nc1ccnn1C1CCN(Cc2ccc(CO)o2)CC1)c1cccc(F)c1 | -8 | -25 | -0.5 |
| 37 | Cc1cnnc2c1-c1nonc1CC2 | -2 | -17 | -0.5 |
| 38 | COc1cccc(NC(=S)N2CCC(N(C)CC3CCCO3)CC2)c1 (configuration not stated) | 1 | -16 | -0.4 |

| No. | Six1-Eya2 blk | TRPML1 inh | TRPV1 PAM |
| --- | --- | --- | --- |
| 33 | 12 | -16 | 4 |
| 34 | 0 | -3 | -7 |
| 35 | 5 | -13 | -2 |
| 36 | 0 | -12 | / |
| 37 | -3 | 14 | 0 |
| 38 | 2 | -2 | 24 |
